Screening results as filed in PubChem BioAssay.
NPYLR7 ag: activates Aedes aegypti NPYLR7 receptor | HEK293T NPYLR7/Galpha15, GCaMP6s calcium fluorescence | activation, % at 10 µM | hit rate 0.15% among 270,000 | AID 1259423; in the data active = activation above about 40%;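 note: 0% = vehicle and 100% = reference agonist at the receptor; some compounds past the cut are filed as inactive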
NPYLR7 ag max-min: further read-out of NPYLR7 ag, marked with its call; activation, %; measured here: Max-Min RFU normalised activation; some inactives read as strong as hits;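 span of the calcium signal over five minutes; 0% = vehicle and 100% = native peptide agonist; compound fluorescence can raise it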
* marks the source's active call; other numbers are inactive results. Only part of the results is shown; rates above refer to the full screens.

molecule | NPYLR7 ag | NPYLR7 ag max-min
Cc1cc(=O)n2nc(Oc3cccc(C(N)=O)c3)sc2n1 | -2.6 | -3.5
Cc1cccc(-c2cccc(NC(=O)C3CCCN(C(=O)c4cc(C)nc(C)n4)C3)c2)c1 (centres undefined) | 7.7 | -5.0
CCc1ccc2nc(C)cc(C(=O)NCc3cccnc3-n3ccnc3)c2c1 | 8.2 | 4.5
COc1cccc(C(CN2CCN(C(=O)c3ccccc3OC)CC2)OCc2cccc(Cl)c2)c1 (centres undefined) | -0.8 | 0.2
FC(F)(F)c1cccc(C2CN(Cc3ccon3)CCO2)c1 (centres undefined) | 3.0 | 1.1
Cc1cnc2c(c1NCCCN(C)C)c(=O)n(C)c(=O)n2C | 7.9 | 3.2
O=C(CN1C(=O)c2ccccc2S1(=O)=O)NCC1CCCCC1 | 0.5 | 2.4
Cc1nn(C)c2sc(C(=O)N(C)CC(=O)Nc3ccccc3C(F)(F)F)cc12 | 3.0 | 0.8
N#CC1=C2SCN(Cc3ccco3)CN2C(=O)CC1c1cccs1 (centres undefined) | 4.9 | 2.0
CCCCCCOc1ccccc1-c1nc2ccccc2c(=O)n1Cc1ccc2c(c1)OCO2 | 5.9 | 4.1
CCn1c(N2CCN(Cc3ccc(F)cc3)CC2)nc2c1c(=O)[nH]c(=O)n2C | 0.1 | 20.3
CCC(C)Oc1ccccc1/C=C/C(=O)NCCCc1ncn[nH]1 (centres undefined) | 5.5 | 13.4
Cc1ccccc1C(=O)NC1CCc2[nH]c3c(C)cccc3c2C1 (centres undefined) | 10.7 | 8.3
COc1ccc(CN2CCCn3cccc3C2c2ccc(F)c(F)c2)cc1 (centres undefined) | 9.7 | 16.5
COc1ccc2c(C)c(CCC(=O)NC(C)C(C)C)c(=O)oc2c1 (centres undefined) | 3.4 | -4.9
O=C1NCCC1Oc1ccc(Br)cc1Br (centres undefined) | -25.5 | -23.8
CC(Oc1ccccc1)C(=O)Nn1cnc2c(cnn2C(C)(C)C)c1=O (centres undefined) | 5.1 | -0.1
CC(=O)c1ccc(S(=O)(=O)N2CCCC(C)C2)cc1 (centres undefined) | 6.8 | 2.5
c1nc(N2CCCC2)c2c3c(sc2n1)CCCC3 | 6.9 | 3.5
CCCCCc1nnc(NC(=O)Cc2ccccc2)s1 | -3.1 | -7.3
CCCOC(=O)C(C(=O)OCCC)C(N)=NCc1ccccc1 | -18.0 | -24.8
CCC(C(=O)N1CCOc2c(O)cc(-c3cccnc3)cc2C1)n1cccc1 (centres undefined) | -5.9 | -13.3
O=C(Cn1cncn1)NCc1ccc(C(F)(F)F)cc1 | 0.9 | -0.6
CCOC(=O)c1sc(N)c(C(=O)OCC)c1CSc1nncs1 | 0.1 | 2.1
COCCn1c(C)cc(O)c(C(=O)Nc2cccc(Cl)c2)c1=O | 0.7 | -1.6
Cc1ccc(NC(=O)N(Cc2ccc(OS(=O)(=O)c3ccc(F)cc3)cc2)C(C)C)cc1C | 9.8 | 20.6
CCn1c(CN2CC(C)CC(C)C2)nc2c1c(=O)n(C)c(=O)n2C (centres undefined) | -8.7 | -10.5
O=C(O)Cc1ccc([N+](=O)[O-])cc1Sc1ccc(Cl)cc1 | -3.4 | -2.4
Cc1cccc(CC(=O)NCC(c2cccn2C)N2CCc3ccccc3C2)c1 (centres undefined) | 10.0 | 8.3
Ic1cccc(-c2nnc(-c3ccccc3)o2)c1 | -8.5 | -15.5
COCCCn1c(C)cn2c3c(=O)n(Cc4ccc(Cl)cc4)c(=O)n(C)c3nc12 | 12.3 | 6.4
CC(C)NC(=O)C1(C)CCCN1C/C=C/c1ccccc1 (centres undefined) | 3.6 | 1.4
Cc1ccc(C(=O)C(C)OC(=O)c2sc3nc4n(c(=O)c3c2C)CCC4)cc1C (centres undefined) | 4.1 | 2.7
Cc1c(Cl)c(CN2CCCC(O)C2)nc2ccccc12 (centres undefined) | 7.1 | 6.4
CCOC(=O)CCc1c(C)nc2ncnn2c1N1CCN(C(=O)c2ccccc2OC(C)=O)CC1 | 26.4 | 16.1
O=C(O)[C@H]1/C(=C/CO)O[C@@H]2CC(=O)N21 | -1.8 | -6.8
CCc1c(C)nn(-c2ccc(C(=O)NCc3ccc4c(c3)OCO4)cc2)c1C | -5.1 | -12.6
Cc1ccccc1NC(=O)CNC(=O)[C@@H]1C[C@@H](NC(=O)c2cccs2)CN1 | 1.4 | -1.6
COCC(=O)N(Cc1cccc(C(F)(F)F)c1)CC1CC(c2ccccc2)=NO1 (centres undefined) | -11.1 | 5.0
CCOC(=O)C(C#N)=Cc1ccco1 | 6.2 | 16.0
CCOc1cnn(-c2cccc(Cl)c2)c(=O)c1Nc1ccc(C(=O)NCc2ccco2)cc1 | 7.7 | 10.0
C(=C\c1nc2ccccc2s1)/c1ccc(N2CCOCC2)cc1 | -1.7 | -3.0
CCN(CC)C(=O)Oc1ccc2c(ccn2Cc2ccccc2Cl)c1NC(=O)c1cc(OC)c(OC)c(OC)c1 | 0.1 | -6.8
CN(C)c1nc(N)nc(Cn2nnn(-c3ccccc3)c2=O)n1 | 11.7 | 3.0
O=C(CCCn1ccnc1)N1CCC(c2ccc(O)cc2)CC1 | 7.9 | 7.1
O=C(O)c1ccc2c(=O)n3c(nc2c1)/C(=C\c1cccnc1)CC3 | 4.3 | 3.3
CCOc1ccccc1N1CCN(C2CC(=O)N(c3ccccc3)C2=O)CC1 (centres undefined) | 0.8 | 10.9
Cc1nc2ccccc2c(C)c1CC(=O)NCCCn1ccnc1 | 3.6 | 3.0
C(=C\c1ccccc1)/CSc1nnc2n1CCN2c1ccccc1 | 1.9 | -0.5
CN1CCC(N2CCCC(NC(=O)c3cnn(-c4ccccc4)c3)C2)CC1 (centres undefined) | 9.8 | 5.7
N#Cc1cccc(S(=O)(=O)Nc2ccc(I)cc2)c1 | -0.5 | 5.6
CN1CCCC[C@]2(C[C@H](CO)[C@H](c3ccco3)N2C(=O)CC(C)(C)C)C1=O | 6.2 | 17.4
CCc1nnc(CNc2cc(Cl)ccc2F)n1C | -0.3 | -3.2
CCC(=O)Nc1ccc(N(C)C)c(CN(CC2CC2)C(=O)COC)c1 | 25.9 | 23.9
COc1ccc(CCN2C(=O)CC(NCc3ccc4c(c3)OCO4)C2=O)cc1OC (centres undefined) | 1.6 | -0.3
O=S(=O)(NCCCN1CCOCC1)c1cc(Cl)c(Cl)cc1Cl | 6.3 | 2.7
COc1ccc2[nH]c(CNC(C)Cn3cnc4ccccc4c3=O)cc2c1 (centres undefined) | -0.8 | -1.8
Cc1nn(C2CCS(=O)(=O)C2)c2nc(-c3ccc(F)cc3)cc(C(=O)O)c12 (centres undefined) | -0.2 | -2.1
Cc1nc(C)c(Cc2ccccc2F)c(N2CCN(C(=O)NC(C)(C)C)CC2)n1 | -1.6 | 4.6
COC(=O)Cn1c(C2CC(=O)N(c3ccccc3OC)C2)nc2ccccc21 (centres undefined) | 3.2 | -0.7

(next part)
molecule | NPYLR7 ag | NPYLR7 ag max-min
COc1cccc(OCC(=O)N2CCC3(CCCN(C)C3=O)C2)c1 (centres undefined) | 1.6 | 3.3
O=C(CSc1cn(CC(=O)N2CCCCC2)c2ccccc12)NC1CCCCC1 | -5.3 | -9.5
CCCc1ccc(C(O)c2ncc(-c3cccc(F)c3)[nH]2)cc1 (centres undefined) | -1.6 | 0.4
CC1CCC(O)(Cn2cnc3c(nnn3-c3ccccc3)c2=O)CC1 (centres undefined) | -4.0 | -5.0
CCOC(=O)c1cnc(-c2ccc(C(F)(F)F)cc2)nc1NCCC1CCCN1C (centres undefined) | 23.7 | 22.4
O=C(NCCc1nnc2ccc(SCC(=O)N3CCOCC3)nn12)c1ccccc1 | 3.5 | -5.3
Cc1cc(=O)[nH]c(NN=C2CC(=[N+]3CCOCC3)CC(C)(C)C2)n1 | 2.3 | 7.2
C=CCOc1ccc(/C=C2\SC(=Nc3ccccc3)NC2=O)cc1OC | -7.7 | -11.2
CC(=O)Nc1cc(C(=O)Nc2n[nH]c(C)n2)cc(C(F)(F)F)c1 | 10.5 | 7.9
CN=c1scc(-c2cccc(Br)c2)n1N=Cc1ccccc1I | 5.0 | 4.0
CCOC(=O)C1CCN(C(c2cccc(F)c2)c2c(O)cc(C)n(CCOC)c2=O)CC1 (centres undefined) | 11.2 | 4.1
CN(CC1COc2ccccc2O1)C(=O)NCCc1ccsc1 (centres undefined) | -3.0 | -4.3
O=C(c1ccc(Cl)c(Cl)c1)N1CCSC1c1ccccc1OCc1ccccc1 (centres undefined) | 18.7 | 15.4
COC(=O)c1ccc(NN=Nc2ccccc2C#N)cc1 | -19.0 | -25.2
CC1(C)OC(=O)CC1C(=O)N1CCC2(CC1)Nc1ccccc1S(=O)(=O)N2 (centres undefined) | -0.3 | 19.9
CC(C)NC(=O)CN1CCN(C(=O)c2ccc(Oc3ccc(F)cc3)cc2)CC1 | 1.2 | -0.3
O=C1CC(COCc2ccccc2)c2cnn(Cc3cccc(F)c3)c2N1 (centres undefined) | 2.9 | -0.9
CCCCOc1ccc(C(=O)Oc2coc(CSc3nc(C)cs3)cc2=O)cc1 | -11.4 | -5.6
CO[C@H]1CN(C(=O)c2ccc(Cl)cc2Cl)[C@@H]2CC[C@@H](OC)C1C2 | 29.2 | 31.0
N#CC(=Cc1cc2ccccc2o1)S(=O)(=O)c1ccc(Br)cc1 | 7.1 | 0.3

Three entries already listed, arranged by molar mass, falling:
molecule | NPYLR7 ag | NPYLR7 ag max-min
O=C(c1ccc(Cl)c(Cl)c1)N1CCSC1c1ccccc1OCc1ccccc1 (centres undefined) | 18.7 | 15.4
CC(C)NC(=O)CN1CCN(C(=O)c2ccc(Oc3ccc(F)cc3)cc2)CC1 | 1.2 | -0.3
CC(=O)Nc1cc(C(=O)Nc2n[nH]c(C)n2)cc(C(F)(F)F)c1 | 10.5 | 7.9

(listing goes on)
molecule | NPYLR7 ag | NPYLR7 ag max-min
Cc1nc(CN2CCN(S(=O)(=O)c3ccc(Cl)c(Cl)c3)CC2)cs1 | 16.9 | 14.1
COc1ccccc1C(=O)N(CC(=O)Nc1cc(-c2ccccc2)nn1-c1ccc(C)cc1)C(C)C | 9.4 | 4.6
Cc1ccc(-c2nc(C)c(C(=O)NC3CCN(C)CC3)s2)o1 | 10.6 | 6.5
COC(=O)c1ccccc1NCc1cc(=O)oc2cc(C)c(O)cc12 | 3.7 | 0.8
CC1CCN(C(c2ccc(F)cc2)C2Sc3nc(-c4ccco4)nn3C2=O)CC1 (centres undefined) | 5.1 | 4.3
COc1ccc(CCNC(=O)CSc2ncnc3sc4c(c23)CCC(C)C4)cc1 (centres undefined) | -2.7 | -7.5
Cc1nn(CC(=O)Nc2c(Cl)cncc2Cl)c(C)c1Cl | -2.4 | -3.8
CCc1ncc(C(=O)N(Cc2ccsc2)C2CCCC2)cn1 | 2.6 | 0.4
Cc1cccc(Cc2ccc3ncc(-c4ccc(C(N)=O)cc4)n3n2)c1 | 1.7 | -0.2
Cc1cnn(Cc2ccc(Cl)cc2)c1NC(=O)c1cc(-c2cnn(C)c2C)on1 | -5.0 | -9.8
COc1ccc(S(=O)(=O)Oc2ccccc2CN(C(=O)Nc2ccccc2OC)C2CC2)cc1 | 1.6 | 3.5
COc1ccc(C(=O)N2CCN(C(=O)c3cn(C)cc4c(=O)n(-c5ccccc5)nc3-4)CC2)cc1 | -0.3 | -1.5
COC(=O)c1ccc(CSc2nnc(CCn3ccc(=O)[nH]c3=O)o2)cc1 | -4.0 | -4.3
COc1ccccc1NC(=O)C1=C(C)Nc2nc(CCCO)nn2C1c1cccc(C)c1 (centres undefined) | 2.9 | 3.9
Cc1n[nH]c(C)c1Sc1ccccc1N=Cc1ccc2c(c1)OCO2 | 4.3 | 1.8
O=C(Cc1cccc2ccccc12)Nc1c2c(nn1-c1ccccc1)CS(=O)(=O)C2 | -3.2 | -4.5
COc1ccc(-n2c(N)cc(=O)nc2SCC(=O)N2CCCc3ccccc32)cc1 | -1.5 | -2.1
CCSc1nnc2c(n1)OC(c1cccc(Cl)c1)Nc1ccccc1-2 (centres undefined) | -3.9 | -6.8
CCN(CC)C(=O)CSc1nc2c(-c3ccccc3)c[nH]c2c(=O)n1C1CC1 | 0.5 | -5.1
O=C(Nc1cc(OCC(F)(F)C(F)F)cc(Oc2ccccc2)c1)c1nn2cccnc2c1Cl | 4.7 | 3.4
CCn1c(C)cc(C)c(C(=O)N2CCCC3(CC2)CNC(=O)O3)c1=O (centres undefined) | 3.2 | 8.1
CCSc1nnc(NC(=O)CSc2nnc(NC(=O)c3cccc(C(F)(F)F)c3)s2)s1 | -7.5 | 0.3
COCCCNc1nc2c(c(=O)[nH]c(=O)n2C)n1Cc1ccccc1Cl | -0.7 | -4.9
Cc1cc(C(=O)Nc2ccc3nc(N4CCN(C)CC4)sc3c2)no1 | 0.4 | -0.8
O=c1ccc(-c2cccnc2)nn1CCNS(=O)(=O)c1cccc(F)c1 | 8.8 | -2.9
O=C(O)CCCN1C(=O)CSC1=S | 6.2 | 6.0
CCOC(=O)c1cc(NS(=O)(=O)c2ccc(Br)cn2)c[nH]1 | -7.0 | 44.9
CC(=O)/C(=N/Nc1cccc(Cl)c1)N1CCCCC1 | 11.6 | 5.7
CCN(C)C(=O)Cn1nc(C2CCCNC2)n(-c2ccccc2)c1=O (centres undefined) | 25.1 | 13.2
O=C(CN1CCN(Cc2cc3n(n2)CCCNC3)CC1)Nc1cccnc1 | 11.6 | 8.0
COc1ccc2ccc(OCc3nc(C(=O)N4CC(n5cccn5)C4)co3)cc2c1 | -2.8 | -5.5
COc1ccc2[nH]c3c(c2c1)CCN(C(=O)c1cc(C)on1)C3c1ccccc1OC (centres undefined) | 11.6 | -0.3
CC(C(=O)NCc1cccnc1)n1c(=O)n(Cc2ccccc2)c(=O)c2ccc(Cl)cc21 (centres undefined) | 16.0 | 12.8
Cc1nc2sccn2c1C=NNC(=O)C12CC3CC(CC(C3)C1)C2 | 5.1 | 4.3
COc1cc(OC)cc(C(=O)Nc2c3c(nn2-c2cccc(C)c2C)CS(=O)C3)c1 (centres undefined) | -0.3 | -2.6
CCC(=O)CSc1nc2cc(S(=O)(=O)N3CCCC3)ccc2n1C1CCCC1 | 3.1 | -0.4
